# TRPML1 inh: qHTS for Inhibitors of the Human Mucolipin Transient Receptor Potential 1 (TRPML1). 390,000 compounds, 0.02% hits. Mucolipin-1 (Homo sapiens), Q9GZU1. activity change, negative = inhibition, % (concentration not given with the values). TRPML1-inducible cells, Ca2+ dye fluorescence, FDSS; stronger effect = lower value; inhibition of EC80 agonist-evoked calcium signal; in the data active means activity change below about -50%; inconclusive means about -30% to -50%; inactive means above about -30%;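 further: stimulus is agonist 54-4 at its EC80 concentration; on the % scale 0 is the no-effect control and ±100 the full control effect; the text of the record puts the active cut at -80%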
# Target sequence (Q9GZU1 whole entry, looked up): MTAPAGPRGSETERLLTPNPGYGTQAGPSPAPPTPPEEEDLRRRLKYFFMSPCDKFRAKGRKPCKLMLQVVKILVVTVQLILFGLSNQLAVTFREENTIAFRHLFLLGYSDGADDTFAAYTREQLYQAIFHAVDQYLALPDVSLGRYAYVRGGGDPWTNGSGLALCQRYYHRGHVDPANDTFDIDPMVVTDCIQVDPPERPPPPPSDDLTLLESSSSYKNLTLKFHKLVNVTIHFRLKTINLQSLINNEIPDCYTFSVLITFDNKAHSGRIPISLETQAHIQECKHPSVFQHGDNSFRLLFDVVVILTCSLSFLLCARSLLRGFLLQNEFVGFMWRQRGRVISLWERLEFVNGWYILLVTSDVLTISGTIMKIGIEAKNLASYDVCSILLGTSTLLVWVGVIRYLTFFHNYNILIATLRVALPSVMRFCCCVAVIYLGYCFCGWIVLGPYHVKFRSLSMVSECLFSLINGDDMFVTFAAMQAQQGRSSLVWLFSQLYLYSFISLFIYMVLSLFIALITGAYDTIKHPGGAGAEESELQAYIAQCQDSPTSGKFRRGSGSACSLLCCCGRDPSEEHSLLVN
#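 Calcium fluorescence in TRPML1-DL cells induced overnight with Tet: a 110 s read after compound pin addition, then a 110 s antagonist read after challenge with 54-4 at 4 uM final (EC80).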
# TRPML1 agonist: qHTS for Agonists of the Human Mucolipin Transient Receptor Potential 1 (TRPML1). Mucolipin-1 (Homo sapiens), Q9GZU1. TRPML1-expressing cells, Ca2+ dye fluorescence, FDSS; host cell line not named in the record; reference of the full effect not given here. activation, % (test concentration not listed). 410,000 compounds, 0.12% hits. AID 624414, 2012; in the data active = activation above about 50%; inconclusive = about 30% to 50%; inactive = below about 30%; further: 0% is about no effect; the text of the record puts the active cut at 80%
#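 Kinetic FDSS Ca2+ read in Tet-induced TRPML1-DL cells (ABD Ca8 dye plus quencher, 45-90 min RT loading): baseline, then compound, then 110 s agonist window; EC80 agonist 54-4 at 4uM final added afterwards for a 110 s antagonist window.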
# D2 ag: Beta-Arrestin HTS for Positive Allosteric Modulators of the Human D2 Dopamine Receptor: Agonists; D(2) dopamine receptor (Homo sapiens), P14416; AID 624465, 2012; activation, % (concentration not given with the values); 360,000 compounds, 0.084% hits; DiscoveRx PathHunter D2 beta-arrestin, luminescence, 90 min; 100% = 57 uM dopamine signal; in the data active = activation above about 40%; inconclusive = about 15% to 40%; inactive = below about 15%; further: the text of the record calls up to 30% inactive
# Target sequence (P14416 whole entry, looked up): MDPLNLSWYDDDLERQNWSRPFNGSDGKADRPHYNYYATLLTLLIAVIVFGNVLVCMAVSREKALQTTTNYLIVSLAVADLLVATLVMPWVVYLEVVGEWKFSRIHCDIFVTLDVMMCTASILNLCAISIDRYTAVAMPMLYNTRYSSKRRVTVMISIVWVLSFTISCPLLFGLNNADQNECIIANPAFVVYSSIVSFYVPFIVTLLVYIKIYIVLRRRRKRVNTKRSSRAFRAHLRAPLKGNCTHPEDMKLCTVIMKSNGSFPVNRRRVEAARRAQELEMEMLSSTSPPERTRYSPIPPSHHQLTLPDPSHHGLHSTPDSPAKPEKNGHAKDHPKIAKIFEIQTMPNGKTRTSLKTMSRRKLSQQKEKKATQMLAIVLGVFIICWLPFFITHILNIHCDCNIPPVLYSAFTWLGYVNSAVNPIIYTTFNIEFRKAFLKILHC
#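 DiscoveRx PathHunter D2 beta-arrestin cells (2,100/well) attached overnight, then compound-stimulated 90 min at 37 C in HBSS/10 mM HEPES/0.1% Tween-20 buffer; beta-galactosidase complementation read by luminescence after 1 h at ambient temperature. Dopamine 57 uM final (EC100) as control.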
# PINK1 expr mod: A Quantitative High throughput Screen to Identify Chemical Modulators of PINK1 Expression. PINK1 immunofluorescence, high-content cytometry, 24 h. Potency, µM (series often up to 76.6 µM), without a hit: at the highest dose activation (PINK1 increase), hits mostly activators. 410,000 compounds, 0.2% hits; active = well fitted activation curve with a large enough effect; inconclusive = small, poorly fitted or top-dose-only effect; inactive = flat fitted curve, though single readings scatter; cell line not stated here;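 further: potency means the concentration at half of the fitted maximal effect; % of control where 0% means no effect; nearly all actives have a fitted effect of over 65% in size; a mitochondrial uncoupler was the plate control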
#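 PINK1 protein level read as immunofluorescence by microplate cytometer in a fixed, stained stable cell line after 24 h exposure to five compound concentrations, with CCCP as control.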
# CtBP-E1A blk: qHTS Assay for Inhibitors of the CtBP/E1A Interaction; CtBP / adenovirus E1A interaction (AlphaScreen); AlphaScreen GST-E1A/His-CtBP binding, 1536-well; stronger effect = lower value; control for the full effect not named in the record; activity change, % (no concentration beside the values); 340,000 compounds, 0.49% hits; in the data active means activity change below about -65%; inconclusive means about -30% to -65%; inactive means above about -30%; further: on the % scale 0 is the no-effect control and ±100 the full control effect
#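 GST-E1A and His-tagged CtBP (125 nM each as 5X stock) were preincubated with pin-transferred compound for 2 h at 37 °C in the dark, then glutathione donor and nickel acceptor beads were added for 1 h before AlphaScreen reading.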
# Six1-Eya2 blk: qHTS Assay for Inhibitors of the Six1/Eya2 Interaction | AlphaScreen GST-Six1/His-Eya2 binding, biochemical; stronger effect = lower value; control for the full effect not named in the record | activity change, % (test concentration not listed) | 360,000 compounds, 0.56% hits | AID 651725, 2012; in the data active = activity change below about -65%; inconclusive = about -30% to -65%; inactive = above about -30%; further: on the % scale 0 is the no-effect control and ±100 the full control effect
#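 AlphaScreen luminescence read after one hour at 37 °C in darkness. Pin-transferred compounds met GST-Six1 and His-Eya2 protein (5X stock 250 nM/500 nM) plus glutathione donor and Ni-chelate acceptor beads (5X, 50 ug/mL).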
# * = called active by the depositor; ? = inconclusive; · = not tested or not shown; [ ] = dose if it differs, or a comment.
1	Cc1sc(N)nc1-c1ccccc1
2	CC(=O)N/N=C(\C)CC(=O)Nc1cccc2c1CCCC2
3	COc1ccccc1N1CCN(C(=S)Nc2ccc(F)cc2)CC1
4	O=C(OC(C(=O)NC1CCCC1)c1cccnc1)C1=Cc2ccccc2OC1 (stereo unspecified)
5	CCOP(=O)(OCC)C(O)c1cc(OC)c(OC)c(OC)c1 (stereo unspecified)
6	COc1ccc(C(=O)NC2CC2)cc1OC1CCN(Cc2ccc(F)cc2Cl)CC1
7	CC(C)(C)OC(=O)C[C@H]1C/C=C\C[C@H](CC(=O)N[C@H](CO)Cc2ccccc2)C(=O)N2CCC[C@H]2COC1=O
8	O=C(Nc1nccs1)c1ccc(Br)c(S(=O)(=O)N2CCCC2)c1

Assay by compound	1	2	3	4	5	6	7	8
TRPML1 inh	-4	-7	-8	5	13	-3	19	6
TRPML1 agonist	0.6	-0.3	-0.2	0.9	-0.4	1.9	0.0	-0.2
D2 ag	4.0	10	3.0	-0.8	0.3	-1.5	-0.9	4.5
PINK1 expr mod	0.2%	0.8%	0.7%	-0.7%	-0.8%	-0.7%	-0.2%	7.7%
CtBP-E1A blk	1	·	-3	-2	11	-14	-7	-11
Six1-Eya2 blk	-2	1	-1	4	0	-7	7	-18

# Record cards, from the list above. Order of screens: TRPML1 inh | TRPML1 agonist | D2 ag | PINK1 expr mod | CtBP-E1A blk | Six1-Eya2 blk
# CC(C)(C)OC(=O)C[C@H]1C/C=C\C[C@H](CC(=O)N[C@H](CO)Cc2ccccc2)C(=O)N2CCC[C@H]2COC1=O reads 19 | 0.0 | -0.9 | -0.2% | -7 | 7
# CCOP(=O)(OCC)C(O)c1cc(OC)c(OC)c(OC)c1 (stereo unspecified) reads 13 | -0.4 | 0.3 | -0.8% | 11 | 0
# COc1ccccc1N1CCN(C(=S)Nc2ccc(F)cc2)CC1 reads -8 | -0.2 | 3.0 | 0.7% | -3 | -1
# CC(=O)N/N=C(\C)CC(=O)Nc1cccc2c1CCCC2 reads -7 | -0.3 | 10 | 0.8% | · | 1

# Additional results
9	Cn1c(-c2ccccn2)[n+](C)c2ccccc21
10	CCOc1ccc(C(=O)NCCC2=CCCCC2)cc1OCC
11	Cc1cccc(OCC(=O)NCC(c2ccco2)N2CCCC2)c1 (stereo unspecified)
12	C=C(C)/C=N/NC(=S)Nc1ccc(S(=O)(=O)N2CCOCC2)cc1
13	CCC(C)NC(=S)Nc1ccc(F)cc1 (stereo unspecified)
14	CCOc1ccccc1OCC(=O)Nc1ccc(N2CCOCC2)cc1N1CCOCC1
15	CNCC(O)CN(c1ccccc1)c1ccccc1 (stereo unspecified)
16	Cc1ccc(NC(=O)c2ccc(CSc3ccccn3)cc2)cc1

Assay by compound	9	10	11	12	13	14	15	16
TRPML1 inh	-11	20	2	12	·	39	2	2
TRPML1 agonist	-0.4	1.0	1.3	0.5	·	0.4	0.4	4.0
D2 ag	0.0	1.8	-5.3	-2.1	-10	-3.2	-1.6	-1.5
PINK1 expr mod	-0.2%	2.6%	-0.4%	1.0%	0.8%	0.1%	5.0%	3.7%
CtBP-E1A blk	-1	-1	5	-17	2	-5	-9	-2
Six1-Eya2 blk	1	-7	-18	-1	5	-10	-19	9

17	O=C(NCCN1CCN(c2ccc([N+](=O)[O-])cc2)CC1)NCc1ccccc1
18	COc1ccc(Br)cc1CN1CCN(C(=O)c2cccc(F)c2)CC1
19	COc1ccccc1S(=O)(=O)Cc1ccc(C(=O)NCC2CCCO2)o1 (stereo unspecified)
20	S=C(NCc1ccco1)NC1CCCc2ccccc21 (stereo unspecified)
21	CCCCNC(=O)c1ccc(NC(=O)CC2SC(N3CCCC3)=NC2=O)cc1 (stereo unspecified)
22	CCOc1ccc(/C(O)=C2\C(=O)C(=O)N(CCN(C)C)C2c2cccc(OC)c2OC)cc1Cl (stereo unspecified)
23	C[C@@H]1COC(=O)[C@H](Cc2ccc(F)cc2)CC/C=C\C[C@@H](CC(=O)NCCO)C(=O)N1
24	COc1cc(NC(=O)c2c(F)c(F)c(OC)c(F)c2F)ccc1NC(=O)c1cccs1

Assay by compound	17	18	19	20	21	22	23	24
TRPML1 inh	-3	29	-12	-19	-15	0	-5	0
TRPML1 agonist	1.2	1.6	0.3	0.4	0.4	0.4	0.4	1.3
D2 ag	-2.7	-1.0	9.7	-4.7	-1.5	-2.3	-0.5	2.4
PINK1 expr mod	0.6%	2.0%	-0.4%	0.8%	-0.2%	-1.2%	2.1%	4.4%
CtBP-E1A blk	·	-22	·	-16	·	8	5	?
Six1-Eya2 blk	-4	-14	5	-14	7	6	0	?

25	NS(=O)(=O)c1cc2c(cc1Cl)NC(CC1CCCC1)NS2(=O)=O (stereo unspecified)
26	C[C@@H](C(=O)Nc1nc2ccc(F)cc2s1)N1C(=O)C2CC=CCC2C1=O (stereo partly specified)
27	Cc1ccc(-c2noc(CNC(=O)c3ccc(C)c(Cl)c3)n2)cc1
28	COc1ccc(-n2c(SCc3ccccc3F)nc3c([nH]c4ccccc43)c2=O)cc1
29	O=C(C1COc2ccccc2O1)N1CCN(Cc2ccccc2)CC1 (stereo unspecified)
30	CCCn1c(CC)nc([N+](=O)[O-])c1Sc1ccc(F)cc1
31	O=C(COC(=O)c1ccccc1OC(F)F)Nc1ccc2[nH]c(=O)[nH]c2c1
32	COc1ccc(CN2C(=O)CCC2(C)C(=O)NC2CCCCC2)c(OC)c1 (stereo unspecified)

Assay by compound	25	26	27	28	29	30	31	32
TRPML1 inh	-10	8	32	-18	-9	-7	-25	-1
TRPML1 agonist	0.5	-0.9	2.8	0.1	0.0	0.0	0.6	-0.3
D2 ag	-6.2	-1.3	·	·	-1.1	-2.4	-3.8	-2.2
PINK1 expr mod	-0.1%	3.0%	6.2%	-3.8%	0.0%	-3.5%	-1.5%	2.2%
CtBP-E1A blk	·	-3	·	·	11	6	-18	4
Six1-Eya2 blk	-2	0	·	·	-6	0	?	6

33	CCN(CC(=O)Nc1ccc(OC)c(OC)c1)CC(=O)Nc1ccccc1C(F)(F)F
34	CN(C(=O)CN1CCN(c2ccc([N+](=O)[O-])cn2)CC1)c1ccccc1
35	Cc1cccc(N2C(=O)Cc3ccccc3C2=O)c1
36	COc1ccc(Cl)cc1C(=O)Nc1cccc2ncccc12
37	Cc1cc(C)n2c(SCc3cccs3)nnc2n1
38	COc1ccc(NCc2n[nH]c(=O)c3ccccc23)cc1
39	CCCCC(=O)N1CC(=O)Nc2ccc(F)cc2C1c1ccccc1 (stereo unspecified)
40	CCN(CC)C(=O)c1nc[nH]c1C(=O)N(C)Cc1ccccc1

Assay by compound	33	34	35	36	37	38	39	40
TRPML1 inh	0	17	-1	2	16	5	18	-14
TRPML1 agonist	-0.1	-0.8	0.9	-0.2	0.9	1.1	1.9	-0.5
D2 ag	-1.0	12	-2.0	3.7	-2.3	-5.5	-0.3	0.2
PINK1 expr mod	5.6%	1.9%	-1.3%	-1.0%	0.2%	-0.9%	-0.1%	0.5%
CtBP-E1A blk	3	·	-20	-12	-4	-4	4	4
Six1-Eya2 blk	28	-18	4	-1	2	-7	15	3

41	CCc1cccc(NC(=O)CCCSc2nc3ccccc3[nH]2)c1
42	CCOc1ccc(NC(=O)CCN2CCN(S(=O)(=O)c3cc(Cl)ccc3OC)CC2)cc1
43	Cc1nc2c3ccccc3nc(NNC(=O)CCC(=O)NCCN3CCN(c4ccccc4F)CC3)n2n1
44	O=C(NCCc1ccccc1)c1ccc(S(=O)(=O)N2CCCC2)cc1
45	COc1ccc(OC)c(S(=O)(=O)N(C)CC(=O)Nc2ccccc2OC)c1
46	Cc1ccc(C(=O)CCC(=O)OCC(=O)Nc2nnc(-c3ccccc3)o2)cc1
47	CCN(CC(=O)NCc1cccs1)C(=O)CCC(=O)c1ccc(C)cc1
48	CN(C)c1ccc(/C=N/NC(=O)c2ccc(Cl)cc2)cc1

Assay by compound	41	42	43	44	45	46	47	48
TRPML1 inh	-11	4	-7	1	-3	72	10	33
TRPML1 agonist	4.2	0.1	0.5	1.2	-0.8	0.4	-1.3	-0.8
D2 ag	2.1	3.5	-4.7	-2.6	-3.8	-3.7	0.1	2.6
PINK1 expr mod	14%	1.2%	-0.6%	0.6%	2.5%	-6.2%	2.1%	12%[38.3 µM]
CtBP-E1A blk	-4	-21	17	27	10	-5	-1	6
Six1-Eya2 blk	1	-28	8	0	6	-13	-2	4

49	Cc1onc(-c2c(F)cccc2Cl)c1C(=O)NC1CCSC1=O (stereo unspecified)
50	NC(Cc1ccccc1)c1csc(Nc2ccc(C(=O)NCCO)cc2)n1 (stereo unspecified)
51	COc1cc(OC)cc(C(=O)N[C@H](C(=O)NCc2cccs2)C(C)C)c1
52	O=C(CCC(=O)N1CCOCC1)Nc1ccc(Cl)c(Cl)c1
53	Cc1ccc(-c2cn3c(n2)sc2cc(C(=O)NCc4cccs4)ccc23)cc1
54	Cc1nc2c(nnn2Cc2ccccc2Cl)c(=O)[nH]1
55	CCCCCCCNC(=O)C1(CC2CC(c3ccccc3)=NO2)CCN(C(=O)c2ccccc2)CC1 (stereo unspecified)
56	O=C(c1cc(COc2cccc(C(F)(F)F)c2)on1)N1CCC(c2ccccc2)CC1

Assay by compound	49	50	51	52	53	54	55	56
TRPML1 inh	-7	·	-20	-12	9	·	-20	16
TRPML1 agonist	-0.3	-0.2	-0.2	0.1	0.1	·	0.9	4.8
D2 ag	1.4	3.7	-3.3	-2.6	·	0.5	0.7	-2.1
PINK1 expr mod	2.4%	2.4%	3.6%	-1.3%	1.2%	-0.7%	0.0%	6.6%
CtBP-E1A blk	2	-9	-3	1	·	·	1	-2
Six1-Eya2 blk	8	-16	-10	-1	·	-3	-7	13

# Reprinted at random: 5 records from the list
53	Cc1ccc(-c2cn3c(n2)sc2cc(C(=O)NCc4cccs4)ccc23)cc1
52	O=C(CCC(=O)N1CCOCC1)Nc1ccc(Cl)c(Cl)c1
51	COc1cc(OC)cc(C(=O)N[C@H](C(=O)NCc2cccs2)C(C)C)c1
55	CCCCCCCNC(=O)C1(CC2CC(c3ccccc3)=NO2)CCN(C(=O)c2ccccc2)CC1 (stereo unspecified)
49	Cc1onc(-c2c(F)cccc2Cl)c1C(=O)NC1CCSC1=O (stereo unspecified)

Assay by compound	53	52	51	55	49
TRPML1 inh	9	-12	-20	-20	-7
TRPML1 agonist	0.1	0.1	-0.2	0.9	-0.3
D2 ag	·	-2.6	-3.3	0.7	1.4
PINK1 expr mod	1.2%	-1.3%	3.6%	0.0%	2.4%
CtBP-E1A blk	·	1	-3	1	2
Six1-Eya2 blk	·	-1	-10	-7	8

# Compound activity: PubChem BioAssay, National Center for Advancing Translational Sciences (NCATS)
